RN4220 kill = growth inhibition of S. aureus RN4220, primary screen, OD600; inhibition, % (concentration not given with the values); 330,000 tested, 0.33% active; 16 h;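 active = z-score of -3 or lower and OD600 up to 0.18 on both plates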;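 note: plate controls were untreated cells for no effect and reference antibiotic for full effect; stock transfer was 100 nL into about 80 µL; one replicate is shown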
Mtb hypoxia inh = PubChem AID 1159583. fluorescence inhibition, % (concentration not given with the values). M. tuberculosis hypoxia-regulated fluorescent reporter, fluorescence. 300,000 tested, 0.1% active;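 active = 35 to 45% if threefold the growth effect, above 45% if 1.5-fold the growth effect; inactive = the rest, general growth blockers included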;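 note: wells of about 50 µL received 100 nL stock; 0% = vehicle wells and 100% = reference inhibitor wells; whole bacteria with a GFP reporter of the hypoxia response; strong numbers were not always called active; many hits fall short of the cut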
Autofluor counter = compound fluorescence in toxin protease inhibitor counterscreen. compound autofluorescence counterscreen, microsphere flow cytometry; hits give high values. fluorescence intensity (no concentration beside the values). 360,000 tested, 3.1% active;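 active = at least 3 SD above the mean of all compounds, about 16000 in these data; inconclusive = too few beads counted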;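 note: 100 nL of 1 mM stock went into each well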
PrP UTR inh = inhibition of PrP 5' UTR reporter expression. 340,000 tested, 0.35% active. inhibition, % (concentration not given with the values). cell-based PrP 5' UTR mRNA reporter, plate reader. AID 488862, 2010;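 active = every replicate at 50% or more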;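 note: 0 = median of the neutral control wells; tested in H4 reporter cells; numbers are from one replicate; inactives centre near -14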
ugtP null kill = growth inhibition of ugtP-null S. aureus, primary screen, RN4220 ugtP deletion, OD600; 16 h; some inactives read as strong as hits; growth inhibition, % (test concentration not listed); 330,000 tested, 0.54% active;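 active = z-score under -3 and OD600 up to 0.15 on both plates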;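 note: plate controls were untreated wells for no effect and antibiotic for full effect; wells of about 80 µL received 100 nL stock; the first replicate is given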
BJeLR viability = MLPCN primary cell-based screen for lethality selective to Ras in HRASV12 cells. BJeLR (HRASV12) viability, CellTiter-Glo ATP luminescence, 48 h; reference of the scale not given here. inhibition, % (test concentration not listed). 300,000 tested, 0.17% active. AID 1554, 2009;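 active = replicate mean above 50%; inconclusive = above 50% but judged a plate artefact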;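 note: 50 nL library stock added to about 25 µL; numbers are from one replicate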
Mtb hypoxia inh growth = second read-out of Mtb hypoxia inh, no call of its own (marks repeat the call); growth inhibition, %; measured here: M. tuberculosis growth (absorbance);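 0% = vehicle and 100% = reference antibiotic; read after six days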
* hit, by the source's call.

Screening OC1(c2ccc(Br)cc2)CCNCC1 returned RN4220 kill -2.2, Mtb hypoxia inh 6, Autofluor counter 11516, PrP UTR inh -30, ugtP null kill -12, BJeLR viability 10 and Mtb hypoxia inh growth 10.
O=C(NC1CC1)c1cc2cc(Br)ccc2s1 was read as RN4220 kill 0.0, Mtb hypoxia inh -3, Autofluor counter 6056, PrP UTR inh -25, ugtP null kill -3, BJeLR viability 2 and Mtb hypoxia inh growth 2.
`COc1ccc(COC(=O)NN=C(C)CC(=O)Nc2ccc(Cl)cc2)cc1` gave RN4220 kill 2.3, Mtb hypoxia inh 3, ugtP null kill 2 and Mtb hypoxia inh growth 5.
Screening O=C(c1cccc(Cl)c1)N1CCN(Cc2ccc3c(c2)OCO3)CC1 returned RN4220 kill 7.0, Mtb hypoxia inh 20, Autofluor counter 3945, PrP UTR inh -24, ugtP null kill 11, BJeLR viability 3 and Mtb hypoxia inh growth 9.
Cc1ccnc(NC(=O)CCC(=O)N(CC(=O)NC(C)(C)C)Cc2ccc3c(c2)OCO3)c1 was read as RN4220 kill 4.3, Mtb hypoxia inh 4, Autofluor counter 4012, PrP UTR inh -5, ugtP null kill 7, BJeLR viability 2 and Mtb hypoxia inh growth -4.
CC(=O)C1CCC2(O)C3CCC4=CC(=O)CCC4(C)C3CCC12C (configuration not stated) was read as RN4220 kill 0.6, Mtb hypoxia inh 7, Autofluor counter 3516, PrP UTR inh -15, ugtP null kill 1 and Mtb hypoxia inh growth 6.
Screening CC1Cc2nc(SCC(=O)Nc3nccs3)n(C)c(=O)c2S1 (configuration not stated) returned RN4220 kill 4.4, Mtb hypoxia inh 1, Autofluor counter 5490, PrP UTR inh -22, ugtP null kill 4, BJeLR viability -6 and Mtb hypoxia inh growth 5.
Screening COc1ccc(S(=O)(=O)N2CCCCC2)cc1NC(=O)CSc1nnc(C2CC2)n1C returned RN4220 kill 0.5, Mtb hypoxia inh 4, Autofluor counter inconclusive, PrP UTR inh -30, ugtP null kill 1 and Mtb hypoxia inh growth 3.
CCCNC(=O)C1CCC(CNS(=O)(=O)c2ccc3c(c2)N(C(C)=O)CCO3)CC1 (configuration not stated) was read as RN4220 kill 2.0, Mtb hypoxia inh 6, Autofluor counter 6562, PrP UTR inh -20, ugtP null kill 5, BJeLR viability 13 and Mtb hypoxia inh growth 4.
`CC(=O)NS(=O)(=O)c1ccc(NC(=O)c2oc3c(Cl)cccc3c2C)cc1` gave RN4220 kill 7.4, Mtb hypoxia inh 13, ugtP null kill 3, BJeLR viability -24 and Mtb hypoxia inh growth 1.
CCC(=O)NNC(=S)NC(=O)c1ccc(C)cc1 was read as RN4220 kill 16, Mtb hypoxia inh 2, Autofluor counter 3692, PrP UTR inh -46, ugtP null kill 13, BJeLR viability 3 and Mtb hypoxia inh growth -4.
CC(C)(C)C(=O)Nc1ccc(S(=O)(=O)Nc2nccs2)cc1 was read as RN4220 kill 1.5, Mtb hypoxia inh 7, Autofluor counter 3564, PrP UTR inh -22, ugtP null kill 2, BJeLR viability -2 and Mtb hypoxia inh growth 1.

Sorted by formula weight (falling): some entries from above
`COc1ccc(COC(=O)NN=C(C)CC(=O)Nc2ccc(Cl)cc2)cc1` gave RN4220 kill 2.3, Mtb hypoxia inh 3, ugtP null kill 2 and Mtb hypoxia inh growth 5.
Screening CC1Cc2nc(SCC(=O)Nc3nccs3)n(C)c(=O)c2S1 (configuration not stated) returned RN4220 kill 4.4, Mtb hypoxia inh 1, Autofluor counter 5490, PrP UTR inh -22, ugtP null kill 4, BJeLR viability -6 and Mtb hypoxia inh growth 5.
CCC(=O)NNC(=S)NC(=O)c1ccc(C)cc1 was read as RN4220 kill 16, Mtb hypoxia inh 2, Autofluor counter 3692, PrP UTR inh -46, ugtP null kill 13, BJeLR viability 3 and Mtb hypoxia inh growth -4.

Arranged by molecular weight (rising): some entries from above.
Screening OC1(c2ccc(Br)cc2)CCNCC1 returned RN4220 kill -2.2, Mtb hypoxia inh 6, Autofluor counter 11516, PrP UTR inh -30, ugtP null kill -12, BJeLR viability 10 and Mtb hypoxia inh growth 10.
O=C(NC1CC1)c1cc2cc(Br)ccc2s1 was read as RN4220 kill 0.0, Mtb hypoxia inh -3, Autofluor counter 6056, PrP UTR inh -25, ugtP null kill -3, BJeLR viability 2 and Mtb hypoxia inh growth 2.
Screening O=C(c1cccc(Cl)c1)N1CCN(Cc2ccc3c(c2)OCO3)CC1 returned RN4220 kill 7.0, Mtb hypoxia inh 20, Autofluor counter 3945, PrP UTR inh -24, ugtP null kill 11, BJeLR viability 3 and Mtb hypoxia inh growth 9.
`CC(=O)NS(=O)(=O)c1ccc(NC(=O)c2oc3c(Cl)cccc3c2C)cc1` gave RN4220 kill 7.4, Mtb hypoxia inh 13, ugtP null kill 3, BJeLR viability -24 and Mtb hypoxia inh growth 1.
Cc1ccnc(NC(=O)CCC(=O)N(CC(=O)NC(C)(C)C)Cc2ccc3c(c2)OCO3)c1 was read as RN4220 kill 4.3, Mtb hypoxia inh 4, Autofluor counter 4012, PrP UTR inh -5, ugtP null kill 7, BJeLR viability 2 and Mtb hypoxia inh growth -4.
Screening COc1ccc(S(=O)(=O)N2CCCCC2)cc1NC(=O)CSc1nnc(C2CC2)n1C returned RN4220 kill 0.5, Mtb hypoxia inh 4, Autofluor counter inconclusive, PrP UTR inh -30, ugtP null kill 1 and Mtb hypoxia inh growth 3.
